Vif TR-FRET: HIV-1 Vif–A3G interaction blockers – biochemical, TR-FRET, GST-Vif 1-94, biotin-A3G peptide, dose response retest, primary screen (AID 1117319); TR-FRET GST-Vif / biotin-A3G peptide binding; higher % means a stronger effect; test concentration not given here; strong numbers were not always called active; inhibition, %; hits with a dose series show IC50 in µM; actives 0.57% (n = 260,000);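 active means above the screen mean plus three standard deviations and confirmed in dose response; inconclusive means results disagree or hit not tested in dose response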;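 further: Vif residues 1-94 fused to GST binding biotinylated APOBEC3G peptide 110-148; 0% = full assay without inhibitor and 100% = GST in place of GST-Vif; retest series ran down from 100 µM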
MLL AF4-AF9 inh: inhibitors of human MLL-AF4/AF9 interaction | P42568 | AlphaScreen, biotin-AF4 peptide binding to FLAG-AF9 | inhibition, % at 10 µM | actives 0.47% (n = 350,000);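 active means every replicate reaching a set inhibition limit, whatever the replicate mean, cut at about 25% in these data; inconclusive means mean inhibition reaches that limit but some replicates miss it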;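 further: 0% = plate neutral control median and 100% = total signal loss; the record names both 10 and 1 µM as test concentration; the first replicate is given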
ALR H2O2 inh: inhibitors of human sulfhydryl oxidase ALR; actives 3.8% (n = 290,000); inhibition, % (no concentration beside the values); P55789; purified ALR, DTT oxidation, H2O2 HRP-luminol luminescence;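 active means mean and each replicate at 75% or more; inconclusive means only one of the two met; inactive means neither met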;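 further: stock transfer was 7.5 nL into about 7.5 µL; 0% = neutral wells and 100% = wells with inactivated enzyme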
Target sequence (P55789 whole entry, looked up): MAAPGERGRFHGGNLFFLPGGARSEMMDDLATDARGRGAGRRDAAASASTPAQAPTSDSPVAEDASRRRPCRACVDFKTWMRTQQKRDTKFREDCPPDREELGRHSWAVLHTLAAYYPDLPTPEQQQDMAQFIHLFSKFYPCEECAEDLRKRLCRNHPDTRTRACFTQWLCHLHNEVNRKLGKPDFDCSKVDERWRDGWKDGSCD
Ecoli growth: E. coli growth inhibition. Escherichia coli growth, OD600, 23 h; stronger effect = lower value. OD600 absorbance (no concentration beside the values). actives 0.21% (n = 330,000). AID 1053175;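 active means OD600 absorbance below the run mean of sample wells minus 3.6 SD, in any replicate, cut at about 0.56 in these data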;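 further: stock transfer was 300 nL into about 60 µL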
rRNA inh HTS: inhibits bacterial ribosomal RNA function over humanized ribosomes; actives 1.6% (n = 350,000); AID 720706; GFP signal change (wild-type ribosome), % (concentration not given with the values); E. coli WT GFP vs humanized-ribosome RFP mutants, fluorescence, 24 h; stronger effect = lower value; DMSO median 0, no signal -100;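 active means significant combined selectivity score with lowered wild-type GFP, culture density cut under 30%, mutant RFP and density less affected; inactive means any of these conditions unmet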; further: one replicate is shown; some compounds called inactive have numbers as strong as hits
FGF22 binding: FGF22 (human) thermal shift binding. recombinant FGF22 thermal shift, SYPRO orange fluorescence; percent of sucrose octasulfate shift, DMSO zero. calls only at 9.99 µM. actives 1.5% (n = 340,000);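 active means melting point raised past a set limit in the mean and every replicate; inconclusive means no clear call; three in four hits are not shown here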
Target sequence (Q9HCT0 whole entry, looked up): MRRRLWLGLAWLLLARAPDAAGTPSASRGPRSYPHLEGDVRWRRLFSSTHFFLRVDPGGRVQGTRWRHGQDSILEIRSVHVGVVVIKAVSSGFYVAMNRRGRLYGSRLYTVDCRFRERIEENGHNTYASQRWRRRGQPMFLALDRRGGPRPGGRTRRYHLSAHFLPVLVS
HNF4A DNA FP: change in binding of human HNF4 alpha to DNA; P41235; HNF4a-FITC DNA binding, fluorescence polarization, 1 h; activity change, % at 10 µM; actives 0.3% (n = 360,000); AID 1224865; in the data active means activity change above about 30%, passing the limit was not always enough;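 further: controls were the assay level and a saturating level of protein; the project sought stronger binding though the title names inhibitors; some compounds called inactive have numbers as strong as hits; positive values seem to mean higher polarization but the record does not say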
Target sequence (P41235 whole entry, looked up): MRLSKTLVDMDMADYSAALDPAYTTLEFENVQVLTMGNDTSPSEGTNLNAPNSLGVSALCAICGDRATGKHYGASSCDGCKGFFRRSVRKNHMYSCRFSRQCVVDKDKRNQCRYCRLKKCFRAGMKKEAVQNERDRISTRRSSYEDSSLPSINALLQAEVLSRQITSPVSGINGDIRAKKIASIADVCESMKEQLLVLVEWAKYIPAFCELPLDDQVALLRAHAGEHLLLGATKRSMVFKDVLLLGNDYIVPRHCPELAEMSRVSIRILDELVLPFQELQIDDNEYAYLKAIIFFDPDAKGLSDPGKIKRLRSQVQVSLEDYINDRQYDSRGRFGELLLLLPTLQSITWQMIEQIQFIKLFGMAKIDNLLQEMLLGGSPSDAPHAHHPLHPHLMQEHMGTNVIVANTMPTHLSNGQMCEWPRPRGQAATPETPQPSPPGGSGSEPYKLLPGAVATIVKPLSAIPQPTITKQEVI
rRNA inh HTS OD600: second read-out of rRNA inh HTS, no call of its own (marks repeat the call); OD600 change, %; measured here: OD600 growth;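 optical density of the mix in the first replicate; 0 = DMSO median and -100 = no signal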
rRNA inh HTS RFP: further read-out of rRNA inh HTS, marked with its call; RFP signal change, %; measured here: RFP humanized mutant strains;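 first replicate; 0 = DMSO median and -100 = no signal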
The depositor's hits bear a star; i = inactive; ? = inconclusive; . = no result given; & = joins results of further samples. The list is partial; the hit share may differ from the screen's.

SMILES	Vif TR-FRET	MLL AF4-AF9 inh	ALR H2O2 inh	Ecoli growth	rRNA inh HTS	rRNA inh HTS OD600	rRNA inh HTS RFP	FGF22 binding	HNF4A DNA FP
Cc1nc(-c2nnc(SCC(=O)Nc3ccc(Cl)cc3)n2C)cs1	-5%	-0.3	-18	0.71	-7	2	-1.2	i	-4.2
Cc1cc(=O)oc2cc(OCC(=O)OCC(=O)N(C)C3CCS(=O)(=O)C3)ccc12 (centres undefined)	.	11	-9	0.68	8	-4	-0.7	i	-5.9
Cc1onc(-c2c(F)cccc2Cl)c1C(=O)N1CCOC12CCCCC2	-11%	0.2	0	0.67	7	7	0.8	i	-5.0
COc1ccc(NC(C)=O)c(C)c1	-12%	-0.7	.	0.64	10	10	3.3	i	-4.3
CS(=O)(=O)N1CCCC(C(=O)NCCCN2CCc3ccccc3C2)C1 (centres undefined)	2%	.	-10	0.64	.	.	.	.	-12
O=C(Nc1cccc(Cl)c1)Nc1nccs1	1%	.	31	0.54*	.	.	.	.	-0.7
O=C(C[n+]1ccccc1)NNc1ccccc1	.	-6.0	.	.	21	9	-2.3	i	-1.4
CCOC(=O)Cc1csc(SCC(=O)NC2CCC(C)CC2)n1 (centres undefined)	-2%	-19	22	0.58	10	6	1.5	i	-0.5
Cc1ccc2c(c1)N(Cc1ccccc1)C(=O)C(C)O2 (centres undefined)	.	-2.1	.	.	-1	8	0.3	i	-0.9
COc1cccc(OCC(=O)NNC(=S)Nc2ccc(Cl)cc2Cl)c1	-8%	-3.8	.	0.73	-47	-71	-9.1	i	0.1
O=C(NCC[C@@H]1CC[C@@H](NS(=O)(=O)c2ccccc2F)[C@@H](CO)O1)c1ccc(F)cc1	.	-1.1	.	.	-2	-8	-1.8	i	.
N#Cc1c(N)c(C(=O)c2ccccc2)n2ccccc12	.	.	-1	0.71	-6	-1	0.8	i	2.3
COc1ccc(NS(=O)(=O)c2cc(NC(=O)CC(=O)c3ccc([N+](=O)[O-])cc3)ccc2C)cc1	2%	0.6	-10	0.72	6	2	-1.8	i	3.8
Cc1nc2sc(C(c3ccccc3)N3CCN(C(=O)c4ccco4)CC3)c(O)n2n1 (centres undefined)	?	2.3	2	0.64	7	7	-0.2	i	-2.3
COc1ccccc1N1CCN(C(=O)C(CC(C)C)NC(=O)C2CCCCC2)CC1 (centres undefined)	12%	0.8	11	0.65	-4	-7	1.4	i	-0.7
CCOc1ccc(/C=N\NC(=O)c2c(C)nc3cc(C)ccn23)cc1	.	3.2	-7	.	15	18	3.2	i	-2.6
Fc1cccc(-c2ccc(C3[C@H]4CNC[C@@H]3N4Cc3cncnc3)cc2)c1 (some centres undefined)	.	7.0	.	.	6&4	11&2	-2.5&4.3	i	.
C=CCN(CC=C)C(=O)c1ccncc1	1%	.	.	0.7	.	.	.	.	2.9
CC(=O)Nc1nnc(CSCc2ccc(F)cc2)s1	-8%	.	.	0.6	9	14	2.2	i	0.8
COc1ccc(S(=O)(=O)N(C)C[C@@H]2Oc3ccc(NS(=O)(=O)c4c(C)noc4C)cc3CC(=O)N([C@H](C)CO)C[C@@H]2C)cc1	.	0.1	.	.	2	0	-0.3	i	.
CCOC(=O)c1ccc(N2CN(C3CCCCC3)CNC2=S)cc1	-1%	.	-4	.	.	.	.	.	0.4
COc1ccc(S(=O)(=O)N2CCCCCC2)cc1Br	-1%	-3.7	.	0.7	-41	-63	-21	i	3.1
O=C(NC1CCCCC1)C1CC(=O)N(c2cccc([N+](=O)[O-])c2)C1 (centres undefined)	-2%	-0.8	2	0.74	14	13	-4.2	i	-1.4
Cc1ccc(S(=O)(=O)N(C)C)cc1NC(=O)CSc1nc2ncc(Cl)cc2[nH]1	0%	-0.9	.	0.67	-9	-13	-0.7	i	1.3
C[C@H]1CN([C@@H](C)CO)C(=O)c2cc(C#CCN(C)C)cnc2O[C@@H]1CN(C)C(=O)NC1CCCCC1	.	0.0	.	.	5	17	-0.5	i	.

Reprinted from the part before: 2 entries, followed by the next part.
SMILES	Vif TR-FRET	MLL AF4-AF9 inh	ALR H2O2 inh	Ecoli growth	rRNA inh HTS	rRNA inh HTS OD600	rRNA inh HTS RFP	FGF22 binding	HNF4A DNA FP
Cc1ccc(S(=O)(=O)N(C)C)cc1NC(=O)CSc1nc2ncc(Cl)cc2[nH]1	0%	-0.9	.	0.67	-9	-13	-0.7	i	1.3
C[C@H]1CN([C@@H](C)CO)C(=O)c2cc(C#CCN(C)C)cnc2O[C@@H]1CN(C)C(=O)NC1CCCCC1	.	0.0	.	.	5	17	-0.5	i	.
C[C@@H]1CCCCO[C@H](CN(C)S(=O)(=O)c2cn(C)cn2)[C@@H](C)CN([C@@H](C)CO)C(=O)c2cc(NS(=O)(=O)c3cccs3)ccc2O1	.	0.4	.	.	3	1	-2.9	i	.
C[C@@H]1CN([C@@H](C)CO)C(=O)Cc2cc(N(C)C)ccc2O[C@H]1CN(C)C(=O)Nc1ccc2c(c1)OCO2	.	0.2	.	.	0	8	0.2	i	.
O=C(C1CCOCC1)N1C[C@@H]2[C@H](c3ccccc31)[C@H](CO)N2C(=O)Cc1ccccc1	.	-1.6	.	.	1	0	0.5	i	.
CCOC1=C/C(=C/c2c(N)n3oc(C)cc3nc2=O)C=CC1=O	4%	.	91*	0.67	.	.	.	.	.
FC(F)(F)C(F)(F)C(F)(F)c1nnc2ccc(N3CCOCC3)nn12	0%	.	-12	0.78	.	.	.	.	2.2
CC1CCN(C(=O)Cc2nn(C)c(=O)c3ccccc23)CC1	2%	.	-5	0.8	.	.	.	.	1.6
Cc1cccc2c(-c3ccccc3)cc(=O)[nH]c12	.	.	0	0.72	.	.	.	.	-1.2
COc1ccc(/C=N/n2c(C)cc(C)c(C(N)=O)c2=O)cc1	-3%	.	-5	.	.	.	.	.	-2.7
COc1ccc(Cl)cc1NC(=O)CSc1nc(-c2ccccc2)cc(=O)[nH]1	-4%	-12	-2	0.69	-2	-3	0.6	i	-1.1
CO[C@@H]1CN(C)C(=O)c2ccc(NC(=O)Cc3ccccc3)cc2OC[C@@H](C)N(C(=O)c2ccccc2F)C[C@@H]1C	.	-0.5	.	.	-10	6	12	i	.
COc1ccccc1/C=C1\SC(=S)N(N2C(=O)CCCC2=O)C1=O	-1%	15	-23	0.69	-11	2	8.0	i	-4.8
C[C@H](O)CC1=C[C@H](O)[C@@H](C)OC1=O	.	-3.4	-4	0.75	.	.	.	i	0.3
COc1nc(N(C)C)nc(N(OC)S(=O)(=O)c2ccccc2Cl)n1	1%	.	2	0.71	.	.	.	.	0.8
CCC(Sc1ncccc1C(=O)O)C(=O)N1CCCC1 (centres undefined)	19%	3.7	-22	0.65	11	6	-4.4	i	0.8
CCCc1[nH]n(-c2nc3ccccc3s2)c(=O)c1C=NCCN1CCOCC1	4%	.	-5	0.7	.	.	.	.	7.4
CN=C1SC(C(=O)O)CC(=O)N1C (centres undefined)	-7%	.	-9	0.72	.	.	.	.	0.7
O=C1c2ccc(-c3ccc(Cl)c(C(F)(F)F)c3)cc2S(=O)(=O)c2cccc(C(=O)N3CCN(c4ncc(Br)cn4)CC3)c21	.	-2.2	1	0.69	3	2	-9.3	i	0.4
Cc1c[n+]([O-])cc(C)c1[N+](=O)[O-]	-4%	-0.9	.	0.67	1	3	-0.9	i	-1.7
O=C(Nc1ccc(Br)cc1)c1cc(-c2ccc3c(c2)OCO3)on1	.	-1.5	.	0.66	8	2	-0.8	i	-2.0
Cc1ccc(-c2csc(N(CCc3ccccc3)C(=O)COc3ccccc3)n2)cc1	-1%	.	2	0.69	.	.	.	.	2.5
COc1ccc(N(CC(=O)N2CCCCCC2)S(=O)(=O)c2ccccc2)cc1	5%	0.2	.	0.69	-2	-4	-2.5	i	0.2
Cc1cc(=O)n2[nH]cc(-c3ccccc3)c2n1	.	3.1	21	0.63	-7	-6	-2.0	i	0.8
CCCCNC(=O)Nc1ccc(C2SCCS2)cc1	3%	.	-17	0.68	4	-6	-0.9	i	5.8
Cc1ccc(-c2ccc([C@H]3[C@H](CO)N4C(=O)CN(C(=O)CN5CCOCC5)C[C@@H]34)cc2)cc1	.	-0.6	.	.	5	2	-4.2	i	.
CC1=CC(C)(C)NC(=S)N1NC(=O)c1ccccc1Cl	-3%	.	.	0.63	5	1	1.3	i	0.9
SMILES	Vif TR-FRET	MLL AF4-AF9 inh	ALR H2O2 inh	Ecoli growth	rRNA inh HTS	rRNA inh HTS OD600	rRNA inh HTS RFP	FGF22 binding	HNF4A DNA FP
O=C(NC1=NCCS1)[C@H](Cc1ccccc1)N1C(=O)c2ccccc2C1=O	-5%	.	-9	0.71	.	.	.	.	-1.5
CCc1ccc(CN2CCC(C(=O)Nc3cccc(-c4nnc(C)s4)c3)CC2)o1	-8%	.	-3	0.65	.	.	.	.	1.7
Cc1ccc(/C=C/C(=O)NC(=S)Nc2ccc(S(=O)(=O)Nc3cc(C)on3)cc2)cc1	0%	-5.2	20	0.72	3	11	1.8	i	4.3
Cc1ccc2nc(-c3ccc(NC(=O)COC(=O)c4ccc(Br)o4)cc3)sc2c1	-19%	.	-2	0.69	.	.	.	.	3.6
COc1ccc(NC(=O)CSc2nc3ccccc3c(=O)n2CCCN2CCCCC2)c(OC)c1	3%	.	-17	0.74	.	.	.	.	0.7
C[C@H](CO)N1C[C@H](C)[C@H](CN(C)S(=O)(=O)c2cn(C)cn2)Oc2c(NC(=O)C3CCOCC3)cccc2C1=O	.	-1.9	.	.	1	4	-1.4	i	.
CCC(C)N=Cc1c(Nc2ccccc2)nc2c(C)cccn2c1=O (centres undefined)	.	-1.6	4	0.67	18	0	1.4	i	1.4
Cc1c(NC(=O)NCc2ccccc2)c(=O)n(-c2ccccc2)n1C	2%	.	-5	0.67	.	.	.	.	2.2
Cc1ccc(S(=O)(=O)N(C)C[C@@H]2Oc3ccc(NC(=O)Cc4ccccc4)cc3C(=O)N([C@@H](C)CO)C[C@@H]2C)cc1	.	-0.2	.	.	-1	-1	4.2	i	.
COC1(OC)N=C(N)C2(C#N)C(c3cccc(Oc4ccccc4)c3)C12C#N (centres undefined)	-3%	.	6	0.68	.	.	.	.	0.2
CCN(CC)C(=O)c1cccc(C)c1	.	-1.6	4	0.67	.	.	.	i	1.3
CC(C)(C)c1ccc(CN2N=Nc3ccccc3S2(=O)=O)cc1	6%	.	-3	0.7	.	.	.	.	-0.5
O=C(O)C(Cc1c[nH]c2ccccc12)NS(=O)(=O)c1cccc2nsnc12 (centres undefined)	.	-14	-18	0.68	.	.	.	i	-3.5
CCc1cccc(NC(=S)N(CCOC)C(C)c2ccco2)c1 (centres undefined)	3%	-1.9	.	0.71	-17	-10	0.6	i	-3.0
Cc1c(Cl)cccc1NC(=O)CSc1nccn1C	-6%	-0.7	-4	0.64	10	8	3.3	i	0.4
CO[C@H]1CN(C)C(=O)c2ccc(NC(=O)c3ccccc3F)cc2OC[C@@H](C)NC[C@H]1C	.	-4.0	.	.	1	4	0.1	i	.
O=C(O)c1ccccc1C(=O)Nc1ccc(Oc2ccccc2)cc1	.	-1.8	94*	0.66	1	13	-1.0	i	-3.0
Cc1ccc(SC(C)C(=O)NCCC2=CCCCC2)cc1 (centres undefined)	.	0.0	1	0.64	7	4	-6.3	i	-4.3
O=C(C#Cc1ccccc1)Nc1ccc(F)cc1	.	-2.1	97*	0.65	3	21	1.0	i	3.7
O=C(COC(=O)c1ccc(Br)cc1)NCC1CCCO1 (centres undefined)	0%	-1.1	-1	0.69	3	6	0.4	i	-2.0

From PubChem
